Screening data from PubChem BioAssay.
Mtb growth – M. tuberculosis H37Rv growth inhibitors, H37Rv strain (AID 1626); M. tuberculosis H37Rv growth inhibition; higher % means a stronger effect; one-dose inhibition, % at 10 µM; IC50 in µM for titrated hits; 220,000 tested, 0.95% active;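 active means confirmed in a dose series; inconclusive means inhibition above 80% but not taken into the dose series; inactive means below 80% or under 30% at every dose of the series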;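 further: bacteria incubated seven days before Alamar blue readout; 0% = bacteria only wells and 100% = bacteria with antibiotic wells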
Mtb betalactam – beta-lactam sensitization of Mtb H37Rv; M. tuberculosis H37Rv growth with meropenem, percent inhibition; hits of this screen are not shown here; inhibition, % at 25 µM; 330,000 tested, 0.27% active; AID 434955;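 active means about 74% or more and at least 40 points above the plate without the antibiotic, then above 30% in a dose series; inconclusive means first-round hits that could not be retested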;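 further: growth measured after seven days incubation then overnight dye step; 0% = bacteria only wells and 100% = bacteria with antibiotic; twin plates without the antibiotic show which effects depend on it; some results filed as inactive read as strong as hits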
Arbovirus inh – antivirals against arbovirus infection; arbovirus infection cell-based antiviral screen; inhibition, % at 10 µM; 200,000 tested, 0.37% active;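 active means inhibition from about 30%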;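 further: bluetongue infection of BSR cells; cell survival read as ATP light after 72 h; 0% = infected wells without compound and 100% = uninfected wells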
YopH inh – blocks Yersinia enterocolitica YopH tyrosine phosphatase | fluorescence Ex485/Em525 | inhibition, %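 (about 10 µM by stock and volumes)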 | 140,000 tested, 0.16% active;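 active means inhibition of 50% or more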;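 further: controls were vehicle for no effect and minimum signal wells for full effect; inactives centre near -20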
RecA splice inh – blocks M. tuberculosis RecA intein splicing | cell-free RecA intein splicing, fluorescence | inhibition, %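 (about 9 µM by stock and volumes)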 | 290,000 tested, 0.75% active; in the data active means inhibition above about 30%; inconclusive means no clear call, values can overlap the other calls;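 further: 0% = vehicle wells and 100% = reference inhibitor control wells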
Target sequence (P9WHJ3 whole entry, looked up, canonical isoform): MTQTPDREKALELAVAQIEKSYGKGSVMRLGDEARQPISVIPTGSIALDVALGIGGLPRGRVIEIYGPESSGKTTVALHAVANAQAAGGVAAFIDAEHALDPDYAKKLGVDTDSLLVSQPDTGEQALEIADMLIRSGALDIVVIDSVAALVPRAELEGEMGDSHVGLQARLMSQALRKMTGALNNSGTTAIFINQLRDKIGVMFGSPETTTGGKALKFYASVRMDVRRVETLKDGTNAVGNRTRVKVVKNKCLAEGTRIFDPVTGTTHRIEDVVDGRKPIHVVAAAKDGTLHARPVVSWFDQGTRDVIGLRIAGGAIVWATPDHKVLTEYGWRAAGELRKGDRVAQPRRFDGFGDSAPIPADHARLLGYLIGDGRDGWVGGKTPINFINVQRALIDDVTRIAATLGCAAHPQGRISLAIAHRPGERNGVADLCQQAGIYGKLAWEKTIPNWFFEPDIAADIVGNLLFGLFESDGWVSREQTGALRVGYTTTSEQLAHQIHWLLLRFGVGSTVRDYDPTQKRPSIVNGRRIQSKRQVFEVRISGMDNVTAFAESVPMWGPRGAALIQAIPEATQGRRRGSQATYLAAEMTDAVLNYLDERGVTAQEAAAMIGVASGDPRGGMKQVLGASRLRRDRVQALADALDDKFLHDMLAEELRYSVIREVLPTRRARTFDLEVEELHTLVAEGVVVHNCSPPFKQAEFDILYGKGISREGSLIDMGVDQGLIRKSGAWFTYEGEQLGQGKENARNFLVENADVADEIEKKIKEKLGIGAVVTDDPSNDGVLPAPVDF
Arbovirus inh repeat – second read-out of Arbovirus inh, no call of its own (marks repeat the call); inhibition, %; measured here: 10K subset replicate screen; many hits read low in the repeat;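 first of two repeat runs on a subset; 0% = infected and 100% = uninfected wells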
Active calls of the source: *; ? = inconclusive; nt = not tested or not shown. Some of the compounds tested. The share of hits here may be higher or lower than overall.

SMILES	Mtb growth	Mtb betalactam	Arbovirus inh	YopH inh	RecA splice inh	others
CC(C)C(O)(C#CCN1CCCCC1)c1ccccc1 (stereo not drawn)	-2%	0	19	7	-0.8
CCCCn1c(N2CCC(Cc3ccccc3)CC2)nc2c1c(=O)[nH]c(=O)n2C	46%	90	-29	-21	24
CCOC(=O)c1sc(NC(=O)c2c(OC)cccc2OC)nc1C	-1%	-14	3	-16	-0.3
O=C1CC(=O)Nc2cc(S(=O)(=O)Nc3ccc(Cl)c(C(F)(F)F)c3)ccc2N1	nt	5	nt	nt	-0.8
CCCNC(=O)c1ccccc1NC(=O)c1ccc(CSc2ccccc2)cc1	79%	99	-27	-18	3.9
O=C(O)COc1ccccc1/C=C1\SC(=O)N(Cc2ccc(F)cc2)C1=O	0%	-5	0	nt	9.7
C=CCc1ccc(OCCCOc2ccc(C)cc2OC)c(OC)c1	-3%	0	11	3	1.2
O=C(NC(c1ccccc1)C(Cl)Cl)c1ccccc1 (stereo not drawn)	0%	2	6	-30	1.7
CCCCc1cc(=O)oc2cc(OCC(=O)NCCN3CCOCC3)c(Cl)cc12	nt	3	nt	nt	-3.5
CC(=O)N/C(=C\c1ccccc1)C(=O)NCc1ccc2c(c1)OCO2	-5%	-4	-2	nt	-1.1
C=CCSc1nc(C)c(CC=C)c(=O)[nH]1	1%	-4	5	-40	-1.3
COc1ccc(S(=O)(=O)N(CC(=O)NC2CC2)c2ccc(C)cc2)cc1OC	-1%	-4	1	12	-0.6
Cc1ccc(-n2c(C)nc3ncnc(-c4ccccc4)c32)cc1	-4%	1	2	-24	1.0
O=C(CNC(=O)c1cccc(Br)c1)NCCc1nc2ccccc2[nH]1	-6%	-1	0	-18	-2.0
COc1ccc(OC)c(/C=N/Nc2nncn2/N=C/c2cc(OC)ccc2OC)c1	4%	43	-19	-15	-8.3
COc1ccc(OCCSc2ncnc3nc[nH]c23)cc1	11%	0	-9	-53	-1.5	Arbovirus inh repeat=-6
Cc1ccc(C(=O)N/N=C\c2ccc([N+](=O)[O-])s2)cn1	?	100	-35	17	-2.4
O=C(CCCn1c(SCC(=O)NCC2CCCO2)nc2ccccc2c1=O)NCC1CCCO1 (stereo not drawn)	-4%	-5	-8	-34	nt
CC(C)c1ccc2oc(=O)cc(CN3CCN(c4ccc(F)cc4)CC3)c2c1	53%	3	-1	-29	7.4
Cc1ccc(/C=C/C(=O)c2ccc(C)cc2)cc1	3%	-7	-3	-85	-0.9
Cc1ccn(CCC(=O)N2CCCC(CCC(=O)NCc3ccc(F)c(F)c3)C2)n1 (stereo not drawn)	5%	10	5	nt	-2.5
CN(C)Cc1ccccc1C(O)(c1ccccc1)c1ccccc1	nt	-2	nt	nt	1.6
CCN(CC)S(=O)(=O)c1ccc(C)c(NC(=O)CN2CCN(C)CC2)c1	-10%	-1	nt	nt	-0.7
Cc1ccc(NC(=O)CSc2nnc(Cc3ccccc3)o2)cc1	23%	-9	4	nt	0.7
Cc1cccc2c(N=Nc3ccc(S(=O)(=O)Nc4cccc(Cl)c4)cc3[N+](=O)[O-])c(O)[nH]c12	5%	6	7	nt	nt
Cc1cccc(OCC(=O)Nc2cccc(C(=O)NCC(C)C)c2)c1	7%	-4	-2	-4	-0.8
Cc1cccc(C)c1NC(=O)Cn1nnnc1N	-7%	-1	17	nt	-0.2
O=C(NCc1cccs1)c1ccc([N+](=O)[O-])cc1Cl	14%	5	17	-1	-5.2
CCN(CCNC(=O)C1CCCN(Cc2nc(-c3ccc(OC)cc3)oc2C)C1)c1ccccc1 (stereo not drawn)	-1%	92	-25	-40	6.9
Cc1sc2nc(CN3CCN(S(=O)(=O)c4cccc5nonc45)CC3)[nH]c(=O)c2c1C	14%	8	-2	1	-0.8
CCC1S/C(=N/N=C/c2ccco2)N(c2ccc(F)cc2)C1=O (stereo not drawn)	-2%	3	-2	-19	0.7
Cc1nn(C)cc1S(=O)(=O)N1CCN(c2ccccc2)CC1	nt	?	nt	nt	1.0
O=C(COC(=O)c1cccc(Oc2ccccc2)c1)NCc1ccco1	-6%	-5	-7	-10	2.9
Cc1ccc(Nc2nnc(SCC(=O)Nc3ncc(C(F)(F)F)cc3Cl)s2)cc1	2%	1	-7	-9	-0.4
CC(C)[C@H](NC(=O)[C@@H]1CSC2c3ccccc3C(=O)N21)C(=O)NC1CCCCC1 (stereo partly drawn)	nt	0	nt	nt	1.9
O=C(CCC(=O)c1cccs1)NCc1cccnc1	5%	-9	2	nt	-2.0
CN(CC(=O)NCc1ccc(F)cc1)S(=O)(=O)c1ccc2c(c1)n(C)c(=O)c(=O)n2C	nt	-2	nt	nt	-1.3
CCOc1cccc(C(=O)NC(=S)NCc2cccnc2)c1	7%	-7	0	-24	0.8
CCOC(=O)N1CCN(Cc2nc3cc(NC(=O)CC)ccc3n2C)CC1	nt	2	nt	nt	0.0
CC(=O)Nc1cccc(Oc2cc(C#N)c(C#N)cc2N2CCOCC2)c1	-4%	-6	4	2	1.6
Cn1c(SCc2ccccc2F)nnc1-c1cnccn1	-1%	-7	0	-27	-0.6
COc1ccc(S(=O)(=O)Nc2cc(C)ccn2)cc1OC	-2%	-3	4	-11	2.5
COc1ccc(S(=O)(=O)NCC(c2cccnc2)N2CCN(c3ccc(F)cc3)CC2)cc1C (stereo not drawn)	23%	nt	6	-8	3.4
Nc1ccc(C(=O)OCC(=O)NC2CCCc3ccccc32)cc1[N+](=O)[O-] (stereo not drawn)	-5%	3	0	5	-0.9
CCOC(=O)C1(C)NC(c2ccco2)C2C(=O)N(CC)C(=O)C21 (stereo not drawn)	-1%	6	-1	nt	-2.2
CC(=O)Nc1ccc(NC(=O)C(C)N(C)CC(=O)Nc2ccccc2Br)cc1 (stereo not drawn)	nt	3	nt	nt	-1.4
COCCSc1nnc(NC(=O)Cc2ccccc2OC)s1	-7%	-7	-8	-13	nt
O=C1CC2(CCN(C(=O)c3ccccc3F)CC2)Oc2ccccc21	nt	-5	nt	nt	-1.8

The final two records of the section above open the next one:
SMILES	Mtb growth	Mtb betalactam	Arbovirus inh	YopH inh	RecA splice inh	others
COCCSc1nnc(NC(=O)Cc2ccccc2OC)s1	-7%	-7	-8	-13	nt
O=C1CC2(CCN(C(=O)c3ccccc3F)CC2)Oc2ccccc21	nt	-5	nt	nt	-1.8
CC(=O)NS(=O)(=O)c1ccc(NS(=O)(=O)c2ccc3ccccc3c2)cc1	nt	5	nt	nt	1.5
CC(=O)c1cc2c(cc1NS(=O)(=O)c1ccccc1)OCO2	-15%	3	8	12	-1.6
COC(=O)c1c(NC(=O)CN2CCN(C(=O)c3ccco3)CC2)c2cc(C)ccc2n1C	-3%	-13	-5	-55	13
Cc1ccc(-c2cc(C(=O)N3CCCCC3)c3ccccc3n2)cc1C	nt	33	nt	nt	12
CNc1nc(SC)nc2ccccc12	?	83	-1	nt	-1.4
O=C(CCCc1nc(-c2ccc(Cl)cc2)no1)NCC1CCCO1 (stereo not drawn)	nt	19	nt	nt	0.9
CSCC(C)N1CCC(n2nccc2NC(=O)CCOc2ccccc2)CC1 (stereo not drawn)	nt	-4	nt	nt	1.1
O=C(O)COc1ccccc1/C=N/Nc1ccc(S(=O)(=O)N2CCOCC2)cc1[N+](=O)[O-]	4%	12	2	nt	-3.1
CC(=O)c1c(C)nc(C)nc1NC(=O)C(C)C	-4%	4	-6	-9	1.6
Cn1c(NC(=O)c2ccc(S(=O)(=O)N3CCOCC3)cc2)cc(=O)n(C)c1=O	3%	4	-11	-24	3.6
COc1ccccc1-c1nc2cc(Cl)ccc2c(=O)n1O	nt	-2	nt	nt	-4.3
Cc1cc(OC(=O)c2cc(Br)ccc2Cl)c([N+](=O)[O-])c(=O)[nH]1	nt	-4	nt	nt	-0.2

Already shown: entries from further up.
SMILES	Mtb growth	Mtb betalactam	Arbovirus inh	YopH inh	RecA splice inh	others
CC(=O)NS(=O)(=O)c1ccc(NS(=O)(=O)c2ccc3ccccc3c2)cc1	nt	5	nt	nt	1.5
CC(=O)c1cc2c(cc1NS(=O)(=O)c1ccccc1)OCO2	-15%	3	8	12	-1.6
COC(=O)c1c(NC(=O)CN2CCN(C(=O)c3ccco3)CC2)c2cc(C)ccc2n1C	-3%	-13	-5	-55	13
Cc1ccc(-c2cc(C(=O)N3CCCCC3)c3ccccc3n2)cc1C	nt	33	nt	nt	12
CNc1nc(SC)nc2ccccc12	?	83	-1	nt	-1.4
O=C(CCCc1nc(-c2ccc(Cl)cc2)no1)NCC1CCCO1 (stereo not drawn)	nt	19	nt	nt	0.9

Next part.
SMILES	Mtb growth	Mtb betalactam	Arbovirus inh	YopH inh	RecA splice inh	others
N/C(=N\OC(=O)c1ccccc1Cl)c1cccnc1	-2%	1	-1	-13	0.1
CCN(CC)CCCNC(=O)CNC(=O)c1nn(-c2ccc(OC)c(OC)c2)c(=O)c2ccccc12	nt	2	nt	nt	0.5
CC(=O)N1CCCc2cc(S(=O)(=O)Nc3cccc(C)c3C)ccc21	nt	-4	nt	nt	0.8
CCOc1ccc(-c2cc(C(=O)O)c3ccccc3n2)c(OCC)c1	3%	1	-1	-44	nt
O=C(C1CCCN(Cc2ccccc2C(F)(F)F)C1)N1CCCCC1 (stereo not drawn)	-15%	-3	5	-5	-0.1
Cc1nc(-c2ccccc2)sc1-c1ccnn1C	-7%	0	4	nt	0.3
CCOc1ccccc1N1C(=O)CC(Sc2ncccc2C(=O)O)C1=O (stereo not drawn)	-12%	0	2	-36	-5.9
CCOC(=O)N1CCC(N(CCN(C)C)C(=S)Nc2cc(Cl)cc(Cl)c2)CC1	1%	-1	-7	nt	2.8
COCC(=O)Oc1c(S(=O)(=O)c2ccc(C)cc2)c(C)nn1C(C)(C)C	nt	5	nt	nt	-0.4
N#C/C(=C(/O)COC(=O)CCC1CCCCC1)c1nc2ccccc2[nH]1	20µM*	91	-10	20	0.8
CCCOc1ccc(C2C(C(=O)c3ccc(C)o3)=C(O)C(=O)N2CCCn2ccnc2)cc1 (stereo not drawn)	-8%	3	nt	-36	-1.5
COCCCNc1c2c(nc3nnnn13)CCCC2	-1%	-4	6	nt	0.1
O=C(CN1C(=O)c2ccccc2S1(=O)=O)Nc1ccon1	nt	-10	nt	nt	1.5
COC(=O)c1[nH]c2ccc(F)cc2c1NC(=O)C1=COCCO1	-2%	-5	1	-18	1.1

Part of the list above in order of molecular weight, highest first:
SMILES	Mtb growth	Mtb betalactam	Arbovirus inh	YopH inh	RecA splice inh	others
CC(=O)N1CCCc2cc(S(=O)(=O)Nc3cccc(C)c3C)ccc21	nt	-4	nt	nt	0.8
CCOc1ccc(-c2cc(C(=O)O)c3ccccc3n2)c(OCC)c1	3%	1	-1	-44	nt
COC(=O)c1[nH]c2ccc(F)cc2c1NC(=O)C1=COCCO1	-2%	-5	1	-18	1.1
